StopGo RLuc = lowers the Renilla signal of an FMDV 2A StopGo reporter. HEK cells with a luciferase reporter of 2A StopGo recoding. Potency, µM (titrated, usually from 57.5 µM), for the others: top-dose signal change, negative = less light. hit rate 0.32% among 120,000; active means well fitted falling curve with a large enough effect; inconclusive means small, poorly fitted or top-dose-only effect; inactive means no such curve, though single readings can be large or run the other way; further: nearly all actives have a fitted effect of over 55% in size; overnight with compound
StopGo FLuc = lowers the firefly signal of an FMDV 2A StopGo reporter. HEK cells with a luciferase reporter of 2A StopGo recoding. Potency, µM (series often up to 57.5 µM), for the others: at the highest dose signal change, negative = less light. hit rate 0.23% among 120,000; active = well fitted falling curve with a large enough effect; inconclusive = small, poorly fitted or top-dose-only effect; inactive = no such curve, though single readings can be large or run the other way; further: nearly all actives have a fitted effect of over 60% in size; overnight with compound
* hit, by the source's call; [ ] = remark or other dose. On the % scale 0 is the no-effect control and ±100 the full control effect; potency means the concentration at half of the fitted maximal effect. Not all compounds are listed; count on the stated rates, not on these rows.

Results for CCc1ccc(NCc2cc3cc4c(cc3n(CC(=O)Nc3cccc(OC)c3)c2=O)OCO4)cc1 ?
StopGo RLuc: -9%; StopGo FLuc: -2%

How did Cc1ccc(S(=O)(=O)Nc2nc3ccccc3nc2Nc2cccc(C(=O)O)c2)c(C)c1 do in these assays?
StopGo RLuc: -3%; StopGo FLuc: -1%

What do the screens show for `Cc1ccc(-c2c3c(=O)n(C)c(=O)n(C)c3c3c(-c4cccc(C)c4)nc4ccccc4n23)cc1`?
StopGo RLuc: -8%; StopGo FLuc: -12%

Results for N#CC1=C(N)OC2=C(C(=O)CCC2)C1c1ccc(-c2ccccc2)cc1 (stereo not given) ?
StopGo RLuc: -1%; StopGo FLuc: 3%

How did CC(C)N1CCCC(CNC(=O)c2ccccc2C(F)(F)F)C1 (stereo not given) do in these assays?
StopGo RLuc: 0%; StopGo FLuc: 0%

What do the screens show for `O=c1oc2ccc(Br)cc2cc1-c1csc(-c2ccccc2)n1`?
StopGo RLuc: 0%; StopGo FLuc: -5%

Results for Cc1ccc(Sc2ccc(NC(=O)c3ccccc3)cc2)c(C)c1 ?
StopGo RLuc: -22%; StopGo FLuc: 2%

What do the screens show for `Clc1cccc(N2CCN(c3ncnc4c3nc3n4CCCCC3)CC2)c1`?
StopGo RLuc: -32%; StopGo FLuc: -33%

Results for Nc1nccnc1C(=O)NCCSCc1cccs1 ?
StopGo RLuc: 6%[1.06 µM]; StopGo FLuc: 28%

How did Cn1c(=O)c2c(ncn2CCCC(=O)Nc2ccc(N3CCCC3=O)cc2)n(C)c1=O do in these assays?
StopGo RLuc: -10%; StopGo FLuc: -3%

What do the screens show for `Cn1c(=O)c2c(nc(NCCCN3CCOCC3)n2Cc2ccc(Cl)cc2)n(C)c1=O`?
StopGo RLuc: -7%; StopGo FLuc: 4%

How did CCCCNC(=S)NN do in these assays?
StopGo RLuc: 40%[activator]; StopGo FLuc: 14%

How did Cc1ccc(-c2nc3n(n2)C(=O)CC(c2ccc(Cl)cc2)S3)cc1 (stereo not given) do in these assays?
StopGo RLuc: -14%; StopGo FLuc: -22%

Results for Cc1cccc(NC(=O)Cn2cc(S(=O)(=O)Cc3ccccc3Cl)c3ccccc32)c1 ?
StopGo RLuc: 28%; StopGo FLuc: -2%

What do the screens show for `CC(C)C(=O)N1c2ncnn2C2(CCCCC2)[C@@H]2CCCC[C@@H]21`?
StopGo RLuc: 16%; StopGo FLuc: 20%

What do the screens show for `O=C(NCCSc1c(-c2ccc(Cl)cc2)[nH]c2ccccc12)c1ccc(S(=O)(=O)N2CCOCC2)cc1`?
StopGo RLuc: 3%; StopGo FLuc: -21%

How did COCCn1c(SCc2nnc(C)o2)nc2sc(C)c(C)c2c1=O do in these assays?
StopGo RLuc: 2%; StopGo FLuc: 8%

Results for CCN1CCN(c2nc3c(c(=O)[nH]c(=O)n3C)n2CCCc2ccccc2)CC1 ?
StopGo RLuc: -3%; StopGo FLuc: 2%

Results for O=C(CCc1c[nH]c2ccccc12)Nc1ccccc1OC(F)F ?
StopGo RLuc: 7%; StopGo FLuc: 16%

How did COc1cc(S(=O)(=O)N2CCC(C(N)=O)CC2)c(C)cc1Br do in these assays?
StopGo RLuc: 54%[activator]; StopGo FLuc: -5%

What do the screens show for `Cc1ccc(C)c(S(=O)(=O)N2CCc3ccccc32)c1`?
StopGo RLuc: 45%[activator]; StopGo FLuc: -4%

How did Cc1nn(C(C)C)c(C)c1NC(=O)c1cc2occc2n1Cc1ccccc1 do in these assays?
StopGo RLuc: -18%; StopGo FLuc: -1%

What do the screens show for `CCC(=O)N1c2ccccc2CC1C(=O)NCCc1ccccc1` (stereo not given)?
StopGo RLuc: -14%; StopGo FLuc: -20%

Results for COc1ccc(-n2c(=O)c3c4c(sc3n(Cc3cc(=O)n5c(C)cccc5n3)c2=O)CCC4)c(OC)c1 ?
StopGo RLuc: 13%; StopGo FLuc: -7%

Results for O=C(Cn1cnc2ccccc2c1=O)OCC(=O)c1ccc2c(c1)OCO2 ?
StopGo RLuc: 22%; StopGo FLuc: 7%

What do the screens show for `Cc1c2cnn(CC(=O)N3CCN(c4ccc(F)cc4)CC3)c(=O)c2c(C)n1Cc1ccccc1F`?
StopGo RLuc: 7%; StopGo FLuc: 0%

Results for CCN(CC)C(=S)SCC(=O)NCC(=O)Nc1c(C)cc(C)cc1C ?
StopGo RLuc: 7%; StopGo FLuc: 1%

Results for CCC(C)c1ccc(OCC(=O)Nc2cccc(-c3nc4ncccc4o3)c2)cc1 (stereo not given) ?
StopGo RLuc: -12%; StopGo FLuc: 60%[activator]

How did COc1cc(SC)ccc1C(=O)Oc1ccc(C(C)=O)cc1 do in these assays?
StopGo RLuc: 6%; StopGo FLuc: 58%[activator]

Results for Cc1cc(C)cc(Oc2c(C(F)(F)F)oc3cc(O)ccc3c2=O)c1 ?
StopGo RLuc: 17%; StopGo FLuc: 0%

What do the screens show for `O=C(Nc1ccc(F)cc1F)c1ccc2c(O)c(S(=O)(=O)c3ccc(Cl)cc3)c(=O)[nH]c2c1`?
StopGo RLuc: 56%[activator]; StopGo FLuc: -11%

Results for Cc1cccc(N2CCN(C(=O)c3cnn(-c4cccc(Cl)c4C)c3C3CCNCC3)CC2)c1C ?
StopGo RLuc: -4%; StopGo FLuc: -14%

How did COc1ccc(C)cc1NC(=O)Cn1nc(-c2cccs2)oc1=O do in these assays?
StopGo RLuc: 23%; StopGo FLuc: 53%[activator]

How did CCN(C(=O)CSc1nc(CN2CCOCC2)nc2ccccc12)C1CCS(=O)(=O)C1 (stereo not given) do in these assays?
StopGo RLuc: -9%; StopGo FLuc: -4%

What do the screens show for `O=C(Nc1ccccn1)c1cc(-c2cccs2)nc2ccccc12`?
StopGo RLuc: 24%; StopGo FLuc: 67%[activator]

What do the screens show for `Cn1nc(CC(=O)Nc2ccc(F)cc2Cl)c2ccccc2c1=O`?
StopGo RLuc: 7.1µM*; StopGo FLuc: inconclusive

What do the screens show for `CCN1CCN(C(=O)c2cnn(-c3ccc(F)cc3F)c2C2CCN(C(=O)OC(C)(C)C)CC2)CC1`?
StopGo RLuc: -14%; StopGo FLuc: -25%

How did CC(C)CC(=O)Nc1ccc2nc(SCC(=O)N3CCOCC3)sc2c1 do in these assays?
StopGo RLuc: 31%[activator]; StopGo FLuc: 24%

Results for C=C(C)COc1ccc2c(=O)c(Oc3ccc(C(=O)OCC)cc3)c(C)oc2c1 ?
StopGo RLuc: 1%; StopGo FLuc: 50%[activator]

How did CC(C)N1C(=O)NC(=O)C2(Cc3c(ccc4ccccc34)N(C)C2)C1=O (stereo not given) do in these assays?
StopGo RLuc: 1%; StopGo FLuc: 13%

What do the screens show for `O=C(CSc1nc(=O)n(Cc2ccccn2)c2c1CCC2)NC1CCCC1`?
StopGo RLuc: 112%[activator]; StopGo FLuc: 5%

What do the screens show for `CCCCCn1c(N2CCOCC2)nc2c1c(=O)[nH]c(=O)n2C`?
StopGo RLuc: 16%; StopGo FLuc: 0%

How did COc1ccc(-c2nc3nc(C)cc(Nc4ccc(C(C)=O)cc4)n3n2)cc1 do in these assays?
StopGo RLuc: 17%; StopGo FLuc: 37%[activator]

What do the screens show for `O=C(COC(=O)c1cc(=O)c2ccccc2o1)NCc1ccccc1`?
StopGo RLuc: -1%; StopGo FLuc: 0%

Results for CCSc1nc2c(c(=O)[nH]1)C(C(=O)Nc1cccc(Cl)c1)CC(=O)N2 (stereo not given) ?
StopGo RLuc: -2%; StopGo FLuc: 3%

Results for COC(=O)c1ccccc1NC(=O)/C(C#N)=C/c1ccc(C)o1 ?
StopGo RLuc: 16%; StopGo FLuc: 60%[activator]

Results for CCOc1ccc(-c2cc(C(=O)NCCCN3CCN(C)CC3)c3ccccc3n2)cc1 ?
StopGo RLuc: 3%; StopGo FLuc: 84%[activator]

Results for CCOc1ccccc1C(=O)Nc1ccc(S(=O)(=O)N2CCCCC2c2cccnc2)cc1 (stereo not given) ?
StopGo RLuc: 47%[activator]; StopGo FLuc: 8%

What do the screens show for `CCOC(=O)Cc1ccc(NC(=O)Nc2c[nH]c(=O)[nH]c2=O)cc1`?
StopGo RLuc: -10%; StopGo FLuc: -8%

What do the screens show for `CCCOc1cccc(NC(=O)c2c(-c3ccccc3Cl)noc2C)c1`?
StopGo RLuc: -1%; StopGo FLuc: -10%

How did CCN(CC)CC(=O)Oc1ccc(NC(C)=O)cc1 do in these assays?
StopGo RLuc: -2%; StopGo FLuc: 4%[11.5 µM]

What do the screens show for `CCOC(=O)c1c(C)[nH]c(C)c1S(=O)(=O)N1CCCC(C(=O)Nc2cccc(C)n2)C1` (stereo not given)?
StopGo RLuc: 10%; StopGo FLuc: 12%

Results for CC(C)(C)c1ccc(NC(=O)c2cccc(CN3CCCC3=O)c2)cc1 ?
StopGo RLuc: 28µM*; StopGo FLuc: inconclusive

How did CCOc1ccc(NC(=O)C2CCC(CNS(=O)(=O)c3ccc4c(c3)CCCC(=O)N4)CC2)cc1 (stereo not given) do in these assays?
StopGo RLuc: -6%; StopGo FLuc: -18%

Results for COc1cc(NC(=O)COC(=O)c2ccc3c(c2)NC(=O)CS3)c(C)cc1[N+](=O)[O-] ?
StopGo RLuc: -2%[1.06 µM]; StopGo FLuc: 2%

What do the screens show for `CC(C)c1cc(C(=O)Nc2ccc(C(N)=O)cc2)c2ccccc2n1`?
StopGo RLuc: 8%; StopGo FLuc: 16%

How did Cc1ccccc1-c1noc(-c2cccnc2N2CCN(c3ccccc3)CC2)n1 do in these assays?
StopGo RLuc: 0%; StopGo FLuc: -6%

What do the screens show for `Cc1ccc(Nc2nc(-c3ccc(F)cc3)cs2)cc1`?
StopGo RLuc: 34%[activator]; StopGo FLuc: 64%

What do the screens show for `COc1cccc(CNC(=O)CSc2n[nH]c(-c3ccccc3Cl)n2)c1`?
StopGo RLuc: -16%; StopGo FLuc: -15%

What do the screens show for `O=C1OC2(c3ccc(O)cc3Oc3cc(O)ccc32)c2ccccc21`?
StopGo RLuc: 63%[activator]; StopGo FLuc: -11%

Part of the list above in order of length of the SMILES, low to high:
How did CCN(CC)CC(=O)Oc1ccc(NC(C)=O)cc1 do in these assays?
StopGo RLuc: -2%; StopGo FLuc: 4%[11.5 µM]

What do the screens show for `Cc1ccc(Nc2nc(-c3ccc(F)cc3)cs2)cc1`?
StopGo RLuc: 34%[activator]; StopGo FLuc: 64%

What do the screens show for `CCCOc1cccc(NC(=O)c2c(-c3ccccc3Cl)noc2C)c1`?
StopGo RLuc: -1%; StopGo FLuc: -10%

What do the screens show for `O=C1OC2(c3ccc(O)cc3Oc3cc(O)ccc32)c2ccccc21`?
StopGo RLuc: 63%[activator]; StopGo FLuc: -11%

What do the screens show for `CC(C)c1cc(C(=O)Nc2ccc(C(N)=O)cc2)c2ccccc2n1`?
StopGo RLuc: 8%; StopGo FLuc: 16%

What do the screens show for `COc1cccc(CNC(=O)CSc2n[nH]c(-c3ccccc3Cl)n2)c1`?
StopGo RLuc: -16%; StopGo FLuc: -15%

What do the screens show for `CCOC(=O)Cc1ccc(NC(=O)Nc2c[nH]c(=O)[nH]c2=O)cc1`?
StopGo RLuc: -10%; StopGo FLuc: -8%

Results for CCOc1ccc(-c2cc(C(=O)NCCCN3CCN(C)CC3)c3ccccc3n2)cc1 ?
StopGo RLuc: 3%; StopGo FLuc: 84%[activator]

Results for CCOc1ccccc1C(=O)Nc1ccc(S(=O)(=O)N2CCCCC2c2cccnc2)cc1 (stereo not given) ?
StopGo RLuc: 47%[activator]; StopGo FLuc: 8%

Results for COc1cc(NC(=O)COC(=O)c2ccc3c(c2)NC(=O)CS3)c(C)cc1[N+](=O)[O-] ?
StopGo RLuc: -2%[1.06 µM]; StopGo FLuc: 2%

How did CCOc1ccc(NC(=O)C2CCC(CNS(=O)(=O)c3ccc4c(c3)CCCC(=O)N4)CC2)cc1 (stereo not given) do in these assays?
StopGo RLuc: -6%; StopGo FLuc: -18%

Additional entries:
What do the screens show for `CCOc1ccc(OCC)c(NC(=O)c2cc(CN3CCOCC3)on2)c1`?
StopGo RLuc: -7%; StopGo FLuc: -13%

What do the screens show for `O=C(NNC(=S)NC1CC2CCC1C2)C1CC1` (stereo not given)?
StopGo RLuc: -3%[1.06 µM]; StopGo FLuc: -1%

Results for O=C(CSc1nc(-c2ccccc2)nc2c1CCCC2)c1ccc(Cl)cc1 ?
StopGo RLuc: -1%; StopGo FLuc: -8%

What do the screens show for `Cc1cc2cc(NS(=O)(=O)c3ccc(C)c(C)c3)ccc2[nH]1`?
StopGo RLuc: 196%[activator]; StopGo FLuc: -13%

What do the screens show for `O=C(CCc1ncc(-c2ccc(F)cc2F)o1)Nc1cc(F)cc(F)c1`?
StopGo RLuc: 4%; StopGo FLuc: 49%[activator]

What do the screens show for `N#C/C(=C\c1ccc(Cl)cc1)C(=O)Nc1ccc(Cl)cc1C(=O)c1ccccc1`?
StopGo RLuc: 1%; StopGo FLuc: 15%

Results for Cc1ccc(Cn2c(=O)n(CCCCC(=O)NCc3ccccc3Cl)c(=O)c3ccccc32)cc1 ?
StopGo RLuc: -11%; StopGo FLuc: -19%

How did Cc1cc2nc(-c3cccc(NC(=O)c4cc([N+](=O)[O-])ccc4N4CCOCC4)c3)oc2cc1C do in these assays?
StopGo RLuc: 3%; StopGo FLuc: 22%

What do the screens show for `Cc1ccc(N2CCN(S(=O)(=O)c3c(C)[nH]c(=O)[nH]c3=O)CC2C)cc1` (stereo not given)?
StopGo RLuc: -14%; StopGo FLuc: -6%

What do the screens show for `COc1cccc(CNC(=O)c2ncoc2-c2cccc(C)c2)c1OC`?
StopGo RLuc: 8%; StopGo FLuc: 74%[activator]

How did CCOc1cccc(C2CC(=O)NC3=C2C(=O)CC(C)(C)C3)c1 (stereo not given) do in these assays?
StopGo RLuc: 10%; StopGo FLuc: 16%

From PubChem BioAssay
